Screens as filed in PubChem.
Vaccinia inh: blocks a specific stage of Vaccinia orthopoxvirus infection; Vaccinia-infected cells, mCherry/Venus stage reporter fluorescence; hits give low values; some inactives read as strong as hits; activity change (mCherry), % (test concentration not listed); hit rate 0.01% among 89,000;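 active = mCherry past -33% and 40 or more points under the early reporter, replicates agreeing; inconclusive = past -33% without that gap or agreement; tested in A549 cells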;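 note: scaled between vehicle wells and reference inhibitor wells; 23 nL library stock went into each well; one replicate is shown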
Vaccinia inh Venus: also measured in Vaccinia inh; calls as there; activity change (Venus), %; measured here: Venus reporter, other viral stage;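 negative = less Venus signal; first of two replicates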
Starred values were filed as active, the others as inactive; ? = inconclusive; nt = no result given; & = joins results of further samples. These rows are one share of the data; count on the stated rates, not on these rows.

SMILES	Vaccinia inh	Vaccinia inh Venus
C[C@H](CO)N1C[C@H](C)[C@H](CN(C)Cc2ccc3c(c2)OCO3)Oc2ncc(-c3cccc(F)c3)cc2C1=O	-8	3
CN(C)CC#Cc1cccc(-c2nc(C(=O)N[C@@H]3CCN(Cc4ccccc4)C3)cc3c2[C@H](CCO)N(S(=O)C(C)(C)C)C3)c1 (some centres undefined)	-13	0
CN1c2ccc(Br)cc2[C@H]2[C@H](CCN2S(=O)(=O)c2cccc(F)c2)[C@H]1CO	-34	-21
CN(C)C(=O)[C@@H]1[C@@H](CO)[C@@H]2Cn3c(cccc3=O)[C@@H]2N1CCc1ccccc1	18	18
O=C(C1CC1)N1CC(=O)N2[C@@H](CO)[C@H](c3ccc(C#Cc4cccc(F)c4)cc3)[C@@H]2C1	-32	-30
C[C@H]1CN([C@@H](C)CO)C(=O)c2cc(NC(=O)c3ccncc3)ccc2O[C@H]1CN(C)C(=O)Nc1ccc(C(F)(F)F)cc1	17	10
O=C(Nc1cccc(F)c1)N[C@@H]1CC[C@H](CCn2cc(Cc3ccccc3)nn2)O[C@H]1CO	-20	-7
O=C(C[C@@H]1CC[C@H](NC(=O)Nc2ccc(C(F)(F)F)cc2)[C@H](CO)O1)NCc1cccc(F)c1	-29	-31
COCCOC(=O)N1C(=O)[C@@]2(c3ccccc31)[C@H](c1ccc(O)cc1)N1[C@H](c3ccccc3)[C@H](c3ccccc3)OC(=O)[C@H]1[C@@H]2C(=O)N1CCc2cc(OC)c(OC)cc2C1	12	2
CCCNC(=O)C[C@H]1CC[C@H]2[C@@H](COc3ccc(NC(=O)C4CCCC4)cc3C(=O)N2C)O1	-2	-4
C[C@@H]1CN([C@H](C)CO)C(=O)c2cc(C3=CCCCC3)cnc2O[C@@H]1CN(C)C(=O)c1cccc(F)c1	-5	-1
COC(=O)C[C@@H]1CC[C@H]2[C@H](COc3ccc(NS(=O)(=O)c4cccc(F)c4)cc3C(=O)N2C)O1	12	-2
CCCNC(=O)N(C)C[C@H]1Oc2cc(C#CC3CC3)ccc2S(=O)(=O)N([C@@H](C)CO)C[C@@H]1C	-19	-11
CCCC#Cc1cnc2c(c1)C(=O)N([C@H](C)CO)C[C@H](C)[C@@H](CN(C)C)O2	-8	-11
COc1cccc(C#Cc2ccc([C@H]3[C@@H](CO)N4C(=O)CN(C(=O)c5ccccc5)C[C@@H]34)cc2)c1	?	nt
CO[C@H]1CN(C)C(=O)c2cc(NS(C)(=O)=O)ccc2OC[C@H](C)N(S(C)(=O)=O)C[C@H]1C	1	1
C[C@@H]1CCCCO[C@H](CN(C)C)[C@@H](C)CN([C@@H](C)CO)C(=O)c2cc(NC(=O)Nc3ccc4c(c3)OCO4)ccc2O1	5	10
CO[C@H]1CN(C)C(=O)c2ccc(NC(=O)Nc3ccc4c(c3)OCO4)cc2OC[C@H](C)NC[C@H]1C	-2	-5
CCNC(=O)[C@@H]1[C@@H](CO)[C@@H]2Cn3c(ccc(-c4ccccc4)c3=O)[C@@H]2N1Cc1cc(F)ccc1F	0	5
C[C@@H]1CN([C@@H](C)CO)C(=O)c2cc(NC(=O)Nc3ccc(F)cc3)ccc2O[C@@H](C)CCCCO[C@H]1CN(C)Cc1ccc(Cl)c(Cl)c1	-22	-21
C[C@H](CO)N1C[C@H](C)[C@@H](CN(C)S(=O)(=O)c2ccc(Cl)cc2)Oc2c(cccc2N(C)C)C1=O	-12	-17
COc1ccccc1CNC(=O)C[C@H]1CC[C@@H](NC(C)=O)[C@H](CO)O1	8	6
COc1ccccc1-c1ccc([C@H]2[C@@H](CO)N3CCCCN(C(=O)c4cccnc4)C[C@@H]23)cc1	4	-12
CN(C)C(=O)[C@H]1[C@H](CO)[C@H]2Cn3c(cccc3=O)[C@H]2N1C(=O)C1CCCC1	3	0
CCC(=O)N1C[C@@H](C)[C@H](OC)CN(C)C(=O)c2cc(NC(=O)NC3CCCC3)ccc2OC[C@H]1C	10	6
Cc1noc(C)c1S(=O)(=O)Nc1ccc2c(c1)C(=O)N([C@H](C)CO)C[C@H](C)[C@@H](CN(C)C(=O)Nc1cccc3ccccc13)OCCCC[C@H](C)O2	3	8
NCC[C@@H]1CC[C@@H](NC(=O)Nc2ccc(F)cc2)[C@@H](CO)O1	4	8
C[C@H](CO)N1C[C@H](C)[C@@H](CN(C)Cc2ccc(C(=O)O)cc2)Oc2ccc(NC(=O)C3CCCCC3)cc2C1=O	11	4
Cc1ccc(S(=O)(=O)Nc2ccc3c(c2)C(=O)N([C@@H](C)CO)C[C@@H](C)[C@H](CN(C)Cc2ccccc2)OCCCC[C@H](C)O3)cc1	-25	-24
CN1c2ccc(-c3ccc(F)cc3)cc2[C@H]2[C@H](CCN2C(=O)c2ccc(F)cc2)[C@@H]1CO	-31	-23
C[C@@H]1CN([C@H](C)CO)C(=O)c2cccc(NS(C)(=O)=O)c2O[C@@H]1CN(C)Cc1ccncc1	2	9
O=C(NCC[C@H]1CC[C@H](NC(=O)c2cnccn2)[C@H](CO)O1)Nc1ccc(Cl)cc1	?	nt
CC(C)NC(=O)Nc1ccc2c(c1)C(=O)N([C@@H](C)CO)C[C@H](C)[C@@H](CN(C)C(=O)Nc1ccc3c(c1)OCO3)OCCCC[C@@H](C)O2	22	12
C[C@@H]1CN([C@@H](C)CO)C(=O)c2cc(NS(C)(=O)=O)ccc2O[C@@H]1CN(C)S(=O)(=O)c1cn(C)cn1	19	10
COc1cccc(NC(=O)N(C)C[C@@H]2OCc3cn(nn3)CCCC(=O)N([C@@H](C)CO)C[C@H]2C)c1	15	9
O=C(C1=C[C@@H](c2ccc3c(c2)OCO3)C[C@@H](OCCCCO)O1)N1CCN(Cc2ccc3c(c2)OCO3)CC1	3	0
COc1ccc2c3c([nH]c2c1)[C@H](CO)N(Cc1ccccc1Cl)CC31CN(C(=O)C2CC2)C1	6	5
Cc1ccc(-c2ccc3c(c2)O[C@H](CN(C)C(=O)NC(C)C)[C@H](C)CN([C@@H](C)CO)S3(=O)=O)cc1	-2	-5
CCCNC(=O)N1CCC2(CC1)CN(C(=O)CCC)[C@@H](CO)c1[nH]c3cc(OC)ccc3c12	12	1
C[C@H]1CN([C@@H](C)CO)C(=O)c2cccc(NC(=O)c3nc4ccccc4s3)c2O[C@H]1CN(C)S(=O)(=O)c1ccc(F)cc1	-31	-18

Shown with two lines to a compound: entries from further up
Below each SMILES: Vaccinia inh | Vaccinia inh Venus
> CC(C)NC(=O)Nc1ccc2c(c1)C(=O)N([C@@H](C)CO)C[C@H](C)[C@@H](CN(C)C(=O)Nc1ccc3c(c1)OCO3)OCCCC[C@@H](C)O2
  22 | 12
> C[C@@H]1CN([C@@H](C)CO)C(=O)c2cc(NS(C)(=O)=O)ccc2O[C@@H]1CN(C)S(=O)(=O)c1cn(C)cn1
  19 | 10

Remaining list, next part.
SMILES	Vaccinia inh	Vaccinia inh Venus
C[C@@H]1CN([C@@H](C)CO)C(=O)Cc2cc(NS(=O)(=O)c3cccs3)ccc2O[C@H]1CN(C)Cc1ccc(C(F)(F)F)cc1	?	nt
COc1ccc(S(=O)(=O)Nc2ccc3c(c2)C(=O)N([C@@H](C)CO)C[C@@H](C)[C@H](CN(C)Cc2ccc(-c4ccccc4)cc2)O3)cc1	-28	-20
Cc1noc(C)c1S(=O)(=O)Nc1ccc2c(c1)C(=O)N([C@@H](C)CO)C[C@@H](C)[C@@H](CN(C)S(=O)(=O)c1ccc(Cl)cc1)OCCCC[C@@H](C)O2	?	nt
C[C@H]1CN([C@@H](C)CO)S(=O)(=O)c2ccc(-c3ccccc3)cc2O[C@H]1CN(C)C(=O)Cc1ccccc1	?	nt
C[C@@H](NC(=O)C[C@H]1CC[C@@H]2[C@H](COC[C@H](O)CN2C)O1)c1ccccc1	24	18
Cc1ccccc1S(=O)(=O)N1[C@@H]2CNC[C@H]1C2c1ccc(-c2cncnc2)cc1 (some centres undefined)	16&7	-1&-12
C[C@@H]1CN([C@H](C)CO)C(=O)c2cc(C#Cc3ccccc3)cnc2O[C@@H]1CN(C)CC1CCOCC1	-22	-12
C/C=C/c1ccc2c(c1)[C@@H]1[C@@H](CCN1C(=O)Cc1cccnc1)[C@@H](CO)N2C	8	5
C/C=C/c1ccc([C@H]2[C@@H](CO)N(C(C)=O)[C@H]2CN(C)S(=O)(=O)CC)cc1	2	4
C[C@H]1CCCCO[C@@H](CN(C)C(=O)Nc2ccc(C(F)(F)F)cc2)[C@@H](C)CN([C@@H](C)CO)C(=O)c2cc(NC(=O)CCC(F)(F)F)ccc2O1	-13	-17
COCC1=C([C@H](O)c2ccccc2)[C@H](CO)[C@@H]2C(=O)N(C)C(=O)[C@@H]2C1	6	-6
O=C(Nc1ccccc1)N1C[C@@H]2[C@H](c3ccccc31)[C@H](CO)N2Cc1ccccc1Cl	-19	-10
C[C@H](CO)N1C[C@H](C)[C@H](CN(C)C(=O)[C@H](C)c2ccccc2)OCc2ccccc2-c2c(n(C)c3ccccc23)C1=O	?	nt
CCCNC(=O)Nc1ccc2c(c1)C(=O)N(C)C[C@H](OC)[C@@H](C)CN[C@H](C)CO2	3	17
O=C(N[C@@H]1CC[C@H](CCn2cc(C3(O)CCCC3)nn2)O[C@H]1CO)C1CCCC1	-15	7
CO[C@H]1CN(C)C(=O)c2cc(NC(C)=O)ccc2OC[C@@H](C)N(Cc2cncnc2)C[C@@H]1C	7	14
COc1cccc(S(=O)(=O)N2C[C@H](O)COC[C@@H]3O[C@@H](CC(=O)N4CCN(C)CC4)CC[C@H]32)c1	27	11
O=S(=O)(N[C@@H]1CC[C@H](CCn2cc(C3CC3)nn2)O[C@@H]1CO)c1ccc(F)cc1	6	6
CC(C)NC(=O)N(C)C[C@@H]1Oc2c(NC(=O)c3ccc(-c4nccs4)cc3)cccc2C(=O)N([C@H](C)CO)C[C@@H]1C	7	-3
CC=Cc1ccc2n(c1=O)C[C@H]1[C@H](CO)[C@@H](C(=O)NCCC)[C@@H]2N1C(=O)C1CC1 (mixture of isomers)	7	6

Continued; the last 5 above are carried over.
SMILES	Vaccinia inh	Vaccinia inh Venus
CO[C@H]1CN(C)C(=O)c2cc(NC(C)=O)ccc2OC[C@@H](C)N(Cc2cncnc2)C[C@@H]1C	7	14
COc1cccc(S(=O)(=O)N2C[C@H](O)COC[C@@H]3O[C@@H](CC(=O)N4CCN(C)CC4)CC[C@H]32)c1	27	11
O=S(=O)(N[C@@H]1CC[C@H](CCn2cc(C3CC3)nn2)O[C@@H]1CO)c1ccc(F)cc1	6	6
CC(C)NC(=O)N(C)C[C@@H]1Oc2c(NC(=O)c3ccc(-c4nccs4)cc3)cccc2C(=O)N([C@H](C)CO)C[C@@H]1C	7	-3
CC=Cc1ccc2n(c1=O)C[C@H]1[C@H](CO)[C@@H](C(=O)NCCC)[C@@H]2N1C(=O)C1CC1 (mixture of isomers)	7	6
Cc1noc(C)c1S(=O)(=O)N(C)C[C@H]1Oc2ccc(NS(=O)(=O)c3ccc(Cl)cc3)cc2CC(=O)N([C@H](C)CO)C[C@H]1C	15	7
C[C@H]1CN([C@@H](C)CO)S(=O)(=O)c2ccc(C3=CCCCC3)cc2O[C@H]1CN(C)C(=O)C1CCOCC1	-16	-5
CO[C@@H]1CN(C)C(=O)c2ccc(NS(C)(=O)=O)cc2OC[C@@H](C)N(S(=O)(=O)CC(F)(F)F)C[C@H]1C	5	6
COc1ccccc1C#Cc1ccc2c(c1)O[C@@H](CN(C)Cc1ccncc1)[C@@H](C)CN([C@H](C)CO)S2(=O)=O	?	nt
CO[C@@H]1CN(C)C(=O)c2ccc(NC(=O)C3CC3)cc2OC[C@@H](C)N(Cc2cccc(F)c2)C[C@H]1C	9	2
COc1ccc(NC(=O)Nc2ccc3c(c2)C(=O)N([C@@H](C)CO)C[C@@H](C)[C@@H](CN(C)CC2CCCCC2)OCCCC[C@@H](C)O3)cc1	?	nt
CCN(C[C@H]1N[C@H](CO)[C@H]1c1ccc(-c2ccc(F)cc2)cc1)C(=O)COC	?	nt
CNC[C@@H]1Oc2ccc(NC(=O)CCN3CCOCC3)cc2C(=O)N([C@H](C)CO)C[C@@H]1C	14	5
COc1cccc(-c2cnc3c(c2)C(=O)N([C@H](C)CO)C[C@@H](C)[C@@H](CN(C)CC2CCOCC2)O3)c1	3	7
COc1ccc(NC(=O)N[C@H]2C=C[C@@H](CC(=O)NC3CCCCC3)O[C@H]2CO)cc1	5	17
C/C=C/c1ccc2c(c1)O[C@@H](CN(C)S(C)(=O)=O)[C@H](C)CN([C@H](C)CO)S2(=O)=O	9	-1
CN1C(=O)c2cc(NC(=O)C3CCCCC3)ccc2OC[C@@H]2O[C@H](CC(=O)NCC3CCCCC3)CC[C@H]21	7	9
C[C@@H]1CN([C@H](C)CO)C(=O)Cc2cc(NC(=O)Cn3cnnn3)ccc2O[C@H]1CN(C)Cc1ccc(C(=O)Nc2ccccc2N)cc1	5	5
Cc1ccc(S(=O)(=O)Nc2ccc3c(c2)C(=O)N([C@H](C)CO)C[C@H](C)[C@@H](CN(C)S(=O)(=O)c2ccc(F)cc2)OCCCC[C@H](C)O3)cc1	?	nt
COCC#Cc1ccc([C@@H]2[C@@H](CO)N3CCCCN(Cc4ccncc4)C[C@H]23)cc1	5	2
CNC[C@H]1Oc2c(NS(=O)(=O)c3ccc(F)cc3)cccc2C(=O)N([C@H](C)CO)C[C@H]1C	2	15
Cc1ccc(-c2ccccc2[C@H]2[C@@H](C#N)N(C(=O)NC3CCCC3)[C@H]2CO)cc1	-25	-24
CO[C@H]1CN(C)C(=O)c2ccc(NS(=O)(=O)c3ccc(F)cc3)cc2OC[C@H](C)NC[C@@H]1C	9	4
C[C@H]1CN([C@@H](C)CO)C(=O)Cc2cc(NS(=O)(=O)c3ccccc3)ccc2O[C@@H]1CN(C)S(=O)(=O)c1cccs1	9	0
